GALR2 agonist = agonists of human galanin receptor 2 (GALR2); activation, %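 (tested at 5 µM)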; 140,000 tested, 0.48% active; GALR2-expressing cells, agonist activation read-out;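 active = above mean plus 3 SD of all compounds, about 5% in these data, not always enough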;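 note: 0% = vehicle buffer wells and 100% = reference agonist at full effect; tested in CHO reporter cells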
PKD1 kinase inh = PKD1 (human) kinase inhibition. Q15139. PKD1 kinase fluorescence polarization assay. inhibition, %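 (about 10 µM by stock and volumes)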. 200,000 tested, 0.056% active. AID 797;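 active = inhibition of 50% or more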;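 note: controls were vehicle for no effect and a reference inhibitor for full effect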
Target sequence (Q15139 whole entry, looked up): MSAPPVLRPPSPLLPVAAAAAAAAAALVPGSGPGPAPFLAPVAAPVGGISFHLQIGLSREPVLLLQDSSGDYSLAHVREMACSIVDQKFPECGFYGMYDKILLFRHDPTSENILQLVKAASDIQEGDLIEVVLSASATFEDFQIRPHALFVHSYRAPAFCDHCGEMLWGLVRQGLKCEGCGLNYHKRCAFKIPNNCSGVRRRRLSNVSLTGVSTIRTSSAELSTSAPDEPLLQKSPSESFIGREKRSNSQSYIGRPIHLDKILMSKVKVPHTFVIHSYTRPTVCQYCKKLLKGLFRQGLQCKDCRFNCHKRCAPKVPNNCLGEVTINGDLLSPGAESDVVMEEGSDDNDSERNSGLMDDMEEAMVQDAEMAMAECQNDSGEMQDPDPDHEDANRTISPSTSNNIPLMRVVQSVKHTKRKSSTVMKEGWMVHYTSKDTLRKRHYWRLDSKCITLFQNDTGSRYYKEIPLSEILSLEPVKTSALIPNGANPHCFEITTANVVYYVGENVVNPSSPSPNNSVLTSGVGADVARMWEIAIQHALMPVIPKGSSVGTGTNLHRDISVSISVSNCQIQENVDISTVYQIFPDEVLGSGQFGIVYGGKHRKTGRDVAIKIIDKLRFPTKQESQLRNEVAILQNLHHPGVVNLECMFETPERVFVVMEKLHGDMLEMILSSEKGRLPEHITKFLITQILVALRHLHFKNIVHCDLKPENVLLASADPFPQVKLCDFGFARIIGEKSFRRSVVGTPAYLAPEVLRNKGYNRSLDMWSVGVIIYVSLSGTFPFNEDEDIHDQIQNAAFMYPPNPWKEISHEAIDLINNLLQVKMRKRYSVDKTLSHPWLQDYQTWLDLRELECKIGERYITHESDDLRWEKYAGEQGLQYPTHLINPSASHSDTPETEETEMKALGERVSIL
RGS16-Gao HTS = RGS16-Galphao interaction regulator (human); O15492+P09471; bead-based flow cytometry RGS16-Galphao binding, fluorescence; actives lie on both sides; binding response (% of control), % at 10 µM; 220,000 tested, 0.38% active; AID 1441;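 active = below 25% or above 175%, edge rows of some plates excepted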;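 note: Galphao activated by GDP with aluminum fluoride before binding; 100% = wells without compound and 0% = beads without RGS; some results beyond the cut were filed as inactive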
HSV augment = HSV replication enhancement; 220,000 tested, 0.005% active; HSV replication augmentation in cells, fold increase; maximum fold increase; AID 1956;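 active = peak rise of 1.5-fold or more in the series; tested in PC3 cells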;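 note: first round at 10 µM; read as green reporter fluorescence; hits show the peak of a series up to 25 µM; 1 = signal of infected wells without compound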
INS promoter inh = TRM-6 insulin promoter activity inhibition; TRM-6 cells (human fetal islet line), insulin promoter-eGFP reporter, imaging; reporter expression induced with tamoxifen; 130,000 tested, 0.9% active; inhibition, % at 2 µM;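 active = inhibition above the mean plus 3 SD, with well images judged a real hit on visual review, cut at about 60% in these data, passing the limit was not always enough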
INS promoter inh cell count = further read-out of INS promoter inh, marked with its call; normalized cell count, %; measured here: cell count, toxicity; reference of the scale not given here;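 cells exposed to compound for 48 h; stained nuclei by imaging scaled within each plate; lower means fewer cells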
HSV augment primary fold = also measured in HSV augment; calls as there; fold increase; compound at 10 µM; measured here: primary screen fold increase 10 uM; tested in PC3 cells;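 GFP signal in the first replicate; 1 = infected wells without compound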
Active calls of the source: *; i = inactive; . = no result given.

Every second line gives: GALR2 agonist, PKD1 kinase inh, RGS16-Gao HTS, HSV augment, HSV augment primary fold, INS promoter inh, INS promoter inh cell count
#1 COC(=O)c1c(C)[nH]c(O)c1C=Nc1ccc(C(C)C)cc1
    -2.5, 5, 103, ., ., -44, 117
#2 CCn1c(SCC(=O)Nc2ccccc2N2CCCCC2)nc2c1c(=O)n(C)c(=O)n2C
    -2.4, -8, 108, i, 1.1, 3, 128
#3 O=C(NC(=S)NCCN1CCOCC1)c1ccccc1Cl
    0.3, -11, 97, i, 1, -26, 70
#4 CCOC(=O)CN(C(=O)CSc1nnc(C)n1-c1ccccc1)c1ccccc1
    -3.0, -4, 93, i, 1.1, -19, 96
#5 CN1CCN(c2ccc(CNC(=O)c3ccc4c(c3)OCCO4)cc2)CC1
    ., ., 102, i, 0.93, ., .
#6 CC(=O)NC(Cc1ccccc1)c1ccc2c(c1)OCCCO2 (centres undefined)
    0.7, -9, 95, ., ., 25, 103
#7 Cc1cc(C(=O)NCCC(c2ccccc2)c2ccccc2)c(C)o1
    -2.4, -5, 112, i, 1.1, -23, 81
#8 Clc1cccc(-c2ccc(C=Nc3ccc(N4CCOCC4)cc3)o2)c1Cl
    ., 0, 96, i, 1, ., .
#9 CCOC(=O)c1c(Nc2ccccc2)sc(/C=C2\C=Nc3ccccc32)c1O
    -0.3, -1, 109, i, 0.7, 21, 88
#10 O=C(c1cccs1)N1CCN(S(=O)(=O)c2cccs2)CC1
    ., -7, 100, i, 0.93, ., .

The listing continues.
Every second line gives: GALR2 agonist, PKD1 kinase inh, RGS16-Gao HTS, HSV augment, HSV augment primary fold, INS promoter inh, INS promoter inh cell count
#11 Cc1ccc(S(=O)(=O)NC2CCC(C(=O)O)CC2)cc1 (centres undefined)
    -0.4, -1, 109, i, 0.96, 50, 118
#12 c1ccc(CCN=C2CCCc3c2[nH]c2ccccc32)cc1
    ., ., 92, i, 0.95, ., .
#13 O=C(NNc1ccc(Cl)cc1)c1cccs1
    ., ., 100, i, 1, ., .
#14 C/C(CC(=O)NCc1ccco1)=N\NC(=O)CC#N
    ., -1, 96, i, 1, -21, 138
#15 Cc1ccc(S(=O)(=O)n2c([N+](=O)[O-])cnc2C)c(C)c1C
    -1.2, 8, 92, i, 1, -42, 110
#16 CCc1nn2c(=O)cc(COc3ccc(/C=C4\C(=N)N5N=C(CC(C)C)SC5=NC4=O)cc3)nc2s1
    ., ., 91, i, 0.92, ., .
#17 COc1cccc(OC)c1OCCCOc1ccc(C)cc1Br
    -0.1, 1, 106, i, 0.99, -52, 141
#18 COc1ccc(CNC(=O)C2CCCN2S(=O)(=O)c2ccc(S(=O)(=O)N(C)C)cc2)cc1 (centres undefined)
    0.0, 3, 103, i, 0.8, 0, 106
#19 Nc1n[nH]c2c1C1(CCCCC1)Cc1ccccc1-2
    -0.8, 5, 102, i, 0.94, 41, 127
#20 CCOC(=O)c1c(C)[nH]c(C)c1C(=O)CSc1nnc(-c2ccco2)n1Cc1ccccc1
    -0.7, -9, 104, i, 0.82, -27, 43

Carrying on:
Every second line gives: GALR2 agonist, PKD1 kinase inh, RGS16-Gao HTS, HSV augment, HSV augment primary fold, INS promoter inh, INS promoter inh cell count
#21 CCCCOC(=O)c1ccc(NC(=S)N2CCN(c3ncc4c(=O)c(C(=O)O)cn(CC)c4n3)CC2)cc1
    ., ., 102, i, 1, ., .
#22 O=C(NCCc1c[nH]c2ccccc12)/C(=C/c1cccnc1)NC(=O)c1cccs1
    ., -2, 100, i, 1, ., .
#23 COc1cccc(-c2nc3ccccc3s2)c1
    -1.1, 12, 97, i, 0.91, 29, 182
#24 COCC(C)n1c(=O)sc2ccccc2c1=O (centres undefined)
    ., 4, 110, i, 0.97, -44, 79
#25 O=C(NC(=S)N1CCN(c2ccc([N+](=O)[O-])cc2)CC1)c1ccccc1Cl
    ., -12, 101, i, 1, ., .
#26 CCOC(=O)Cn1c(S(=O)(=O)Cc2ccc(F)cc2)nc(-c2ccccc2)c1-c1ccccc1
    0.2, 1, 102, i, 0.86, -36, 124
#27 Cc1ccc(S(=O)(=O)N2CCN(CC(=O)N/N=C\C(Cl)=C\c3ccccc3)CC2)cc1
    0.9, 2, 97, i, 0.86, 13, 119
#28 COC(=O)c1cccc(NC(=O)COC(=O)CSc2nc(C)cc(C)n2)c1
    -1.2, 3, 99, i, 0.97, ., .
#29 COc1cc(NC(=O)CCC(=O)O)nc(OC)n1
    -1.9, -10, 56, i, 1.1, -13, 105
#30 CCN(C(=O)COc1cc(=O)n(CC)c2ccccc12)c1cccc(Cl)c1
    -1.1, 3, 104, i, 0.72, -40, 77

Remaining list, next part:
Every second line gives: GALR2 agonist, PKD1 kinase inh, RGS16-Gao HTS, HSV augment, HSV augment primary fold, INS promoter inh, INS promoter inh cell count
#31 Cc1c(C)n(C(=O)CSc2ncn[nH]2)c2ccccc12
    0.2, 6, 104, i, 0.96, ., .
#32 COc1ccc(CCN(C)C(=O)C2CCN(Cc3ccccc3)CC2)cc1OC
    ., 1, 103, i, 0.97, ., .
#33 Cc1cccc(NCN2C(=O)c3ccncc3C2=O)n1
    -0.9, -12, 99, i, 1.1, 20, 99
#34 CS(=O)(=O)N1CCC(C(=O)Nc2ccc(F)cc2F)CC1
    -0.6, 1, 100, i, 0.9, -26, 86
#35 O=C(NCCCl)Nc1cccnc1Cl
    ., 1, 115, i, 0.97, ., .
#36 O=C(c1cc2ccccc2oc1=O)N1CCOCC1
    ., ., 91, i, 1.1, ., .
#37 COc1ccc(/C=N/NC(=S)NC2CCS(=O)(=O)C2)cc1OC (centres undefined)
    -2.9, 6, 86, i, 0.86, ., .
#38 CCOC(=O)N1CCC(NC(=O)Cn2ncc3c4ccccc4n(C)c3c2=O)CC1
    -2.3, -5, 101, i, 0.86, 59, 115
#39 CCC1CCCCN1C(=O)Cn1c(=O)oc2ccccc21 (centres undefined)
    -2.9, -9, 97, i, 1.1, ., .
#40 Cc1ccc(C(=O)CN(Cc2ccccc2)C2=NCCS2)cc1
    -1.8, -1, 101, i, 1, ., .

An excerpt from above in order of their number in HSV augment primary fold, falling.
entry | SMILES | HSV augment primary fold
33 | Cc1cccc(NCN2C(=O)c3ccncc3C2=O)n1 | 1.1
35 | O=C(NCCCl)Nc1cccnc1Cl | 0.97
31 | Cc1c(C)n(C(=O)CSc2ncn[nH]2)c2ccccc12 | 0.96
38 | CCOC(=O)N1CCC(NC(=O)Cn2ncc3c4ccccc4n(C)c3c2=O)CC1 | 0.86

Later entries
Every second line gives: GALR2 agonist, PKD1 kinase inh, RGS16-Gao HTS, HSV augment, HSV augment primary fold, INS promoter inh, INS promoter inh cell count
#41 Cc1cc(N/N=C/c2ccccc2Br)nc2ccccc12
    -1.2, 13, 116, i, 0.98, -9, 100
#42 CC(=O)Nc1ccc(Oc2ncccn2)c(Cl)c1
    -2.3, 2, 99, i, 0.99, 9, 45
#43 O=C(COC(=O)c1ccco1)Nc1ccc2c(c1)OCO2
    -0.7, 2, 126, i, 0.95, ., .
#44 COc1ccc(N2C(=O)CCC2(C#N)c2ccc(OC)cc2)cc1 (centres undefined)
    0.5, -6, 143, i, 1, 30, 108
#45 COc1ccc(C(c2nnnn2Cc2ccccc2)N2CCN(C(=O)c3ccco3)CC2)cc1 (centres undefined)
    0.1, 3, 98, i, 0.84, ., .
#46 c1ccc(OCc2nn3c(Cn4cnc5ccccc54)nnc3s2)cc1
    -1.6, -1, 92, i, 0.93, -30, 73
#47 COc1cc(/C=C(\NC(C)=O)C(=O)NC(C)(C)CC(C)(C)C)ccc1OC(C)=O
    -2.1, -4, 106, i, 0.85, ., .
#48 CCOC(=O)C1=C(c2ccccc2)NC(=O)NC1c1ccc(O)c(OCC)c1 (centres undefined)
    ., -1, 104, i, 1, ., .
#49 O=C(CN1C(=O)NC2(CCCCC2)C1=O)N1CCN(S(=O)(=O)c2ccccc2)CC1
    ., -4, 105, i, 0.96, ., .
#50 CCC1(C)Cc2c(sc3nnn(CC(=O)Nc4ccc(C)cc4)c(=O)c23)CO1 (centres undefined)
    0.8, 3, 100, i, 0.85, ., .

The results go on:
Every second line gives: GALR2 agonist, PKD1 kinase inh, RGS16-Gao HTS, HSV augment, HSV augment primary fold, INS promoter inh, INS promoter inh cell count
#51 CCCCOc1cccc(C(=O)N(Cc2cccs2)C2CCS(=O)(=O)C2)c1 (centres undefined)
    0.0, -5, 101, i, 0.99, -112, 115
#52 CCCN1C(=O)C(Cc2nc3ccccc3c(=O)n2-c2ccccc2)c2cc(C)ccc21 (centres undefined)
    -1.0, -9, 89, i, 0.92, -17, 123
#53 CCn1c(CNc2ccc(F)cc2)nnc1SCC(=O)OC1CCCCC1
    -1.6, 9, 75, i, 1.1, 8, 101
#54 COc1ccccc1/C=N\Nc1cn[nH]c(=O)c1Cl
    ., 3, 91, i, 0.6, -50, 113
#55 Cc1ccc2cn[nH]c2c1N
    ., 3, 107, i, 1.1, -15, 86
#56 COc1cc(/C=N/Nc2nncn2N)ccc1OCc1c(C)no[n+]1[O-]
    ., ., 90, i, 0.84, ., .
#57 CCN(CC)CCN1C(=O)C(=O)/C(=C(/O)c2ccc3c(c2)CC(C)O3)C1c1ccc(OC)cc1 (centres undefined)
    ., ., 106, i, 1, ., .
#58 FC(F)(F)c1nnc2ccc(Cl)nn12
    ., -9, 109, i, 1, ., .
#59 COc1ccc(C[C@H]2CN3C(=NC[C@@H]3Cc3ccccc3)N2C[C@H](C)NC(=O)CCC2CCCCC2)cc1
    ., ., 100, i, 0.51, ., .
#60 CC(C)c1ccc(C(=O)N(c2ccccn2)C(C)c2ccco2)cc1 (centres undefined)
    -0.9, -4, 97, i, 0.93, -47, 152

Record cards, as listed above. Screens in order: GALR2 agonist	PKD1 kinase inh	RGS16-Gao HTS	HSV augment	HSV augment primary fold	INS promoter inh	INS promoter inh cell count
Shown for `FC(F)(F)c1nnc2ccc(Cl)nn12` → .	-9	109	i	1	.	.
Shown for `CCCCOc1cccc(C(=O)N(Cc2cccs2)C2CCS(=O)(=O)C2)c1` (centres undefined) → 0.0	-5	101	i	0.99	-112	115
Shown for `COc1ccccc1/C=N\Nc1cn[nH]c(=O)c1Cl` → .	3	91	i	0.6	-50	113
Shown for `CCCN1C(=O)C(Cc2nc3ccccc3c(=O)n2-c2ccccc2)c2cc(C)ccc21` (centres undefined) → -1.0	-9	89	i	0.92	-17	123

New compounds follow.
Every second line gives: GALR2 agonist, PKD1 kinase inh, RGS16-Gao HTS, HSV augment, HSV augment primary fold, INS promoter inh, INS promoter inh cell count
#61 CCN(CC)CCCNC1CCS(=O)(=O)C1 (centres undefined)
    -4.3, 1, 76, i, 0.94, ., .
#62 Cn1ncc([N+](=O)[O-])c1C(=O)n1nnc2ccccc21
    ., -5, 102, i, 0.92, -12, 88
#63 NC(=O)NOCc1ccccc1F
    ., -4, 95, i, 1, ., .
#64 Cc1ccc(-n2ncc3c(=O)n(CC(=O)N4CCN(c5ccccc5)CC4)cnc32)cc1C
    ., -7, 102, i, 0.96, -37, 145
#65 C/C(=N\N=C1\NC(=O)CC(C(=O)O)S1)c1cccs1 (centres undefined)
    -0.6, -10, 109, i, 1, 0, 201
#66 Cc1ccc(CNC(=O)Cn2cc(C(F)(F)F)ccc2=O)cc1
    -1.8, 2, 110, i, 1, 30, 94
#67 O=c1[nH]c(C2C3CC4CC(C3)CC2C4)nc2ccccc12 (centres undefined)
    2.7, -1, 96, i, 0.94, ., .
#68 Cc1nnc(C)c2c(C)n(-c3ccccc3N)c(C)c12
    ., -1, 104, i, 1.1, ., .
#69 O=C(CSc1nnc(CNc2ccc(F)cc2)n1Cc1ccco1)NC1CC1
    0.2, -2, 102, i, 0.98, -7, 185
#70 NS(=O)(=O)c1ccc(Nc2nc(-c3ccc(O)cc3O)cs2)cc1
    -0.2, 6, 88, i, 0.8, -14, 112
#71 CCOC(=O)C1=C(N)N2C(=O)C(C)SC2=C(C(=O)OCC)C1c1ccc(O)cc1 (centres undefined)
    ., ., 97, i, 0.96, ., .

In another format: 4 of the compounds above.
entry | structure | GALR2 agonist | PKD1 kinase inh | RGS16-Gao HTS | HSV augment | HSV augment primary fold | INS promoter inh | INS promoter inh cell count
66 | Cc1ccc(CNC(=O)Cn2cc(C(F)(F)F)ccc2=O)cc1 | -1.8 | 2 | 110 | i | 1 | 30 | 94
67 | O=c1[nH]c(C2C3CC4CC(C3)CC2C4)nc2ccccc12 (centres undefined) | 2.7 | -1 | 96 | i | 0.94 | . | .
68 | Cc1nnc(C)c2c(C)n(-c3ccccc3N)c(C)c12 | . | -1 | 104 | i | 1.1 | . | .
69 | O=C(CSc1nnc(CNc2ccc(F)cc2)n1Cc1ccco1)NC1CC1 | 0.2 | -2 | 102 | i | 0.98 | -7 | 185

Screening results from PubChem.
